Tau filament bind = tau filament binding | Potency, µM (top dose mostly 57.1 µM), for inactives: at the highest dose activity change, negative = inhibition | recombinant tau filaments, thioflavin S fluorescence, 15 h; filaments grown with octadecylsulfate alongside compound | P10636 | 71,000 tested, 2% active | AID 596;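 also: potency is read from the fitted curve at half-maximal effect; % is scaled to controls: 0 for no effect and ±100 for the full control effect; actives lower thioflavin S fluorescence by blocking filaments or displacing dye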
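Assay mix: 1 uM His-tagged tau, 30 uM sodium octadecylsulfate, thioflavine S dye in HEPES/NaCl/DTT buffer. Compound is added prior to the inducer. Fluorescence after 15 h at 37 C.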
ERK AVP block = vasopressin-driven ERK pathway inhibition | HEK293-V1b, vasopressin-stimulated pERK AlphaScreen | Potency, µM (series often up to 57.5 µM), for inactives: at the top dose activity, negative = inhibition, hits mostly inhibitors | 72,000 tested, 0.99% active; also: potency is read from the fitted curve at half-maximal effect; % is scaled to controls: 0 for no effect and ±100 for the full control effect; nearly all actives have a fitted effect of over 55% in size
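HEK293 cells stably expressing V1b receptor, seeded overnight in 1% FBS, were treated with compounds for 30 min at 37C, then stimulated 5 min with 25 nM vasopressin; phospho-ERK read by AlphaScreen SureFire after lysis.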
15-hLO inh = blocks human 15-lipoxygenase activity; AID 887; Potency, µM (highest dose often 57.1 µM), inactives show at the highest dose activity change, negative = inhibition, most hits filed as inhibitors; P16050; purified 15hLO-1, xylenol orange hydroperoxide absorbance; 74,000 tested, 1.4% active; also: potency is read from the fitted curve at half-maximal effect; % is scaled to controls: 0 for no effect and ±100 for the full control effect; nearly all actives have a fitted effect of over 55% in size
Target sequence (P16050 whole entry, looked up): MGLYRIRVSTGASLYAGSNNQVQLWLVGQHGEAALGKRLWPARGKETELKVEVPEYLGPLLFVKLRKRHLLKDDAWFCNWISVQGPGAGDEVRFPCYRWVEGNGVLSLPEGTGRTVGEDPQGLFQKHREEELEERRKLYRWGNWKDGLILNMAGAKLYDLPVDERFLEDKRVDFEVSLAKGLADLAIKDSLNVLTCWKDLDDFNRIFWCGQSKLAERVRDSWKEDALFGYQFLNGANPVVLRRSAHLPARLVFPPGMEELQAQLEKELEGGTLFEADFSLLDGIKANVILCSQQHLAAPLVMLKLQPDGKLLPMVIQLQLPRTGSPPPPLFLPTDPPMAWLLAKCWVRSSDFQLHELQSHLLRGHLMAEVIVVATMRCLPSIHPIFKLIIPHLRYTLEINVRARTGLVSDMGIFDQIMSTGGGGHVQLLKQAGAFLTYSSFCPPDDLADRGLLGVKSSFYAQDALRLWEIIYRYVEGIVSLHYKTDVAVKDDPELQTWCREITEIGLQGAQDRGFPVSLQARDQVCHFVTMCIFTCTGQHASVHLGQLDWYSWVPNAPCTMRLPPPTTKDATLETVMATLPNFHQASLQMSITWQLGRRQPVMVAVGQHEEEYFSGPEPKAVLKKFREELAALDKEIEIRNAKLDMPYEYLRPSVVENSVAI
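40 nM 15hLO-1 + cpd, 15 min RT; start w/ 50 uM AA (final), 6 min RT; stop/detect w/ 200 uM XO + 300 uM Fe(II) in 50 mM H2SO4, 30 min; A573/A405. Buffer 25 mM Hepes pH 7.5, 0.01% Triton X-100. No-enzyme wells as negative control.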
Luciferase inh = inhibitors of firefly luciferase; P08659; purified firefly luciferase, luminescence, 8 min; Potency, µM (titrated, usually from 57.1 µM), without a hit: at the highest dose activity change, negative = inhibition, most hits filed as inhibitors; 72,000 tested, 2.2% active; AID 411; also: potency is read from the fitted curve at half-maximal effect; % is scaled to controls: 0 for no effect and ±100 for the full control effect; nearly all actives have a fitted effect of over 40% in size
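Luminescence read-out after 8 min at room temperature; enzyme reaction used luciferin plus 10 uM ATP (linear range) in imidazole buffer pH 7.2 with KCl, MgCl2, Tween 20 and BSA. Each sample was run as a titration.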
Hsp90 Hop PPI = changes Hsp90-Hop TPR2A binding signal, up or down | 71,000 tested, 0.44% active | AlphaScreen TPR2A-His6 binding biotin-Hsp90 C-terminal peptide | Potency, µM (doses to about 57 µM), without a hit: at the highest dose activity change, negative = inhibition; active = well fitted curve in either direction with a large enough effect; inconclusive = small, poorly fitted or top-dose-only effect, or another doubt; also: potency is read from the fitted curve at half-maximal effect; % is scaled to controls: 0 for no effect and ±100 for the full control effect; many of its hits are not listed in these tables
GFP derepression = derepresses silenced GFP locus in mouse C127i cells | Potency, µM (doses to about 46.1 µM), for the others: at the highest dose GFP derepression (activation) | AID 597 | 68,000 tested, 0.09% active | mouse C127i GFP locus derepression, cytometry, 30 h; also: % of control where 0% means no effect
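Murine C127i mammary cells carrying a silenced, stably integrated CMV-driven GFP reporter were treated with compound for 30 hours at 37 C. After PBS washes, GFP-positive cells were counted by laser-scanning microplate cytometry.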
Ub-GFP proteasome = proteasome inhibitors stabilizing ubiquitin-GFP reporter; 67,000 tested, under 10 active; Ubiquitin-GFP reporter cells, proteasome inhibition, GFP fluorescence; response scale: untreated = 0%, 10 µM MG-132 = 100%; Potency, µM (highest dose often 45.9 µM), without a hit: top-dose activation (GFP accumulation), most hits filed as activators; active = well fitted activation curve with a large enough effect, not every such curve was filed as active; inconclusive = small, poorly fitted or top-dose-only effect, or another doubt; inactive = no such curve, though single readings can be large or run the other way; also: potency is read from the fitted curve at half-maximal effect
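Proteasome blockade was scored as a rise in GFP-expressing U2OS cells carrying a ubiquitin(G76V)-GFP construct, imaged after 4 hr compound treatment at 37 °C across a 46 uM–2.9 nM series.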
HBB splice mod = modulators of hemoglobin beta chain splicing. HBB splicing reporter cell assay, activation; EGFP reporter with mutant IVS2-654 intron; response scale: normalised to 500 nM splice-correcting PNA. Potency, µM (titrated, usually from 46.1 µM), without a hit: top-dose activation, hits mostly activators. AID 925. 65,000 tested, 0.06% active; also: potency is read from the fitted curve at half-maximal effect; 0% is about no effect
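HeLa cells stably expressing EGFP interrupted by mutant beta-globin intron 2 (IVS2-654), 500/well in 2% FCS. Treated with compound for 2 days at 37C. Splicing correction scored as total well GFP intensity (488 nm excitation, 500-520 nm emission); 500 nM antisense PNA served as control.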
DNA Pol III inh = DNA polymerase III holoenzyme inhibition | Potency, µM (titrated, usually from 57.1 µM), without a hit: top-dose activity change, negative = inhibition | 71,000 tested, 0.25% active | reconstituted DNA polymerase III holoenzyme replication, biochemical | AID 603; also: potency is read from the fitted curve at half-maximal effect; % is scaled to controls: 0 for no effect and ±100 for the full control effect
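Reconstituted *E. coli* holoenzyme (0.35 nM Pol III, 1 nM beta, 154 nM SSB, 2 nM primase) was preincubated with compound for 15 min at RT. Synthesis on 1.4 nM ssM13Gori ran 35 min, then was stopped with PicoGreen/EDTA and read as dsDNA fluorescence.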
CRE-bla Fsk = alters forskolin-stimulated CRE reporter signaling in CHO cells; CHO CRE-bla reporter (cAMP response element driving beta-lactamase), forskolin EC10, beta-lactamase ratio; Potency, µM (titrated, usually from 38.2 µM), inactives show at the top dose activity change, negative = inhibition, usual class: activators; 71,000 tested, 2.5% active; AID 662; active = well fitted activation curve with a large enough effect in the signal ratio, with a control signal flat, not every such curve was filed as active; inconclusive = small, poorly fitted or top-dose-only effect, or effect the other way, or a change in a side signal; the % refers to the signal ratio; also: potency is read from the fitted curve at half-maximal effect; % of control where 0% means no effect
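Beta-lactamase reporter under a cAMP responsive element in CHO cells; compounds tested in titration series against EC10 NKH 477, 3 h at 37 °C. Read-out: CCF4 FRET ratio 460nm/530nm (excitation 405nm) giving %Activity, fitted to AC50.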
Active calls of the source: *; ? = inconclusive; . = not tested or not shown; [ ] = remark or other dose. Unless noted, calls follow the shape of the dose curve; as a rule, active = well fitted curve in the direction sought with a large enough effect; inconclusive = small, poorly fitted or top-dose-only effect, or another doubt; inactive = no such curve, though single readings can be large; an effect the other way counts as inactive or inconclusive.

smiles	Tau filament bind	ERK AVP block	15-hLO inh	Luciferase inh	Hsp90 Hop PPI	GFP derepression	Ub-GFP proteasome	HBB splice mod	DNA Pol III inh	CRE-bla Fsk
CC(=O)c1ccc(OC(=O)C2CC(=O)N(c3cccc(C)c3)C2)cc1 (stereo not drawn)	3%	6%	-5%	-1%	-5%	-3%	-2%	0.3%	-2%	-8%
COc1ccc(-c2nc(-c3ccc(NC(=O)c4ccncc4)cc3)no2)cc1OC	136%	10µM*	-2%	1%	-6%	-8%	-3%	-0.7%	8%	?
CCc1nnc(NC(=O)c2cccs2)s1	7%	.	0%	-8%	-4%	.	7%	-0.7%	-8%	-1%
O=C1CN(C(=O)c2ccc(Br)o2)C(c2ccc(F)cc2)c2cc(Cl)ccc2N1 (stereo not drawn)	-16%	17%	-5%	1%	-16%	0%	-1%	-0.4%	-2%	-15%
CCc1ccccc1NS(=O)(=O)c1cc(C)ccc1OC	167%	-5%	-6%	2%	11%	?	4%	-0.3%	-2%	?
COc1cc(C2C(C#N)=C(N)Oc3cc(O)ccc32)cc2c1OCO2 (stereo not drawn)	60%	-4%	2%	6%	-7%	5%	13%	-0.5%	5%	-2%
CCCOc1ccc(/C(O)=C2/C(=O)C(=O)N(CCN(C)C)C2c2ccc(O)c(OC)c2)cc1 (stereo not drawn)	-5%	-22%	1%	1%	1%	0%	.	-1.0%[0.369 µM]	-4%	7%
CCC(C)NC(=O)c1cnn2c(C)c3c(nc12)CCCC3 (stereo not drawn)	0%	-20%	8%	0%	-2%	3%	6%	5.4%	-8%	13µM*
CCOC(=O)c1ccc(N2CSC3=C(C#N)C(c4ccc(OC)cc4OC)CC(=O)N3C2)cc1 (stereo not drawn)	-13%	1%	?	-4%	-3%[2.3 µM]	.	-12%	-0.7%	-1%	-6%
CCOC(=O)c1sc(N2C(=O)C(O)=C(C(=O)c3ccco3)C2c2ccccc2)nc1C (stereo not drawn)	-4%	-14%	22%	0%	-12%	-2%	8%	-2.7%[57.5 µM]	4%	?
CC1(C)CC(=O)c2cc(OCC(=O)NCCCN3CCN(c4ccc(F)cc4)CC3)ccc2O1	-13%	11%	-3%	0%	-11%	-1%	-9%	0.3%	3%	-23%
COc1ccc(NC(=O)c2ccco2)cc1NC(=O)c1ccc(Br)o1	8%	-22%	-7%	-1%	-3%	2%	1%	-0.1%	3%	?
CSc1nc(-c2ccco2)nn1S(=O)(=O)c1ccccc1	8%	-15%	-13%	-1%	-6%	2%	3%	-0.3%	1%	-3%
Cc1sc2nc(CN3CCCC3)nc(N3CCN(S(=O)(=O)c4cccs4)CC3)c2c1C	135%	-15%	9%	0%	-10%	1%	-2%	-0.3%	1%	-2%
COc1ccc(-c2cn3c(C)c(C(=O)Nc4cccc(C)n4)sc3n2)cc1	14%	-13%	?	-23%	-4%	2%	7%	-0.8%	0%	12%
CCNc1ncc2nc(-c3ccccc3)c(=O)n(C3CC3)c2n1	80%	3%	-7%	-2%[11.4 µM]	4%	0%[9.22 µM]	10%	0.6%	-10%	?
Cc1cc(NO)nc(-c2ccc(Br)cc2)n1	-10%	-46%	16µM*	-23%	-3%	-2%	18%	-0.7%[9.22 µM]	-4%	-3%
COc1ccc(OC)c(C2CC(=O)N3CN(c4cccc(Cl)c4)CSC3=C2C#N)c1 (stereo not drawn)	9%	-9%	?	-4%	-16%	-2%	12%	0.2%	-1%	7%
CC1=C(C(=O)OCC2CCCO2)C(c2ccncc2)C2=C(CCCC2=O)N1 (stereo not drawn)	-6%	5%	1%	-2%	-1%	5%	0%	-1.3%[9.22 µM]	3%	8%
Cc1ccc(-c2ccc(/C=N/n3cnnc3)o2)cc1Cl	12%	-4%	-14%	0%	-10%	-4%	10%	-1.0%[9.22 µM]	-2%	?
Cc1cc(-c2ccccc2)c2nncn2n1	0%[11.4 µM]	-25%	4%[11.4 µM]	1%	-5%[11 µM]	-3%	18%[9.17 µM]	-2.5%[0.0738 µM]	-2%[11.4 µM]	?
COc1cccc(CNC(=O)C2CCCN(c3nc4ccccc4o3)C2)c1 (stereo not drawn)	26%	-16%	3%	2%	-4%	2%	1%	-3.4%[57.5 µM]	0%	-4%
COc1ccc(S(=O)(=O)N2CCCN(CCC(=O)Nc3cccc(C(F)(F)F)c3)CC2)cc1	-6%	-27%	-16%	3%	-2%	-1%	-14%	0.3%	-2%	?
O=C(COc1ccccc1)N1CCc2ccccc2C1	5%	-1%	7%	-12%	-1%	9%	0%	-0.5%	2%	?
CN(C)c1ccc(C(=S)NCc2ccco2)cc1	-16%	-15%	25µM*	-4%	-10%	0%	2%	1.6%	-1%	1%
CC(=O)N1CCN(C(=S)c2ccc(N(C)C)cc2)CC1	-3%	4%	-2%	2%	-1%	-2%	8%	-0.2%[9.22 µM]	-9%	9%
CCn1c(N)c(C(=O)N2CCOCC2)sc1=S	5%	5%	?	-1%	3%	0%	-8%	0.1%	2%	9%
COc1ccc(NC(=O)C2CCCCN2S(=O)(=O)c2ccc(F)cc2)cc1 (stereo not drawn)	-19%	.	9%	2%	0%	.	-8%	0.1%	-6%	-10%
COCCN(CCOC)C(=O)c1sc2nc(-c3ccccc3)cn2c1C	4%	6%	6%	-1%	-4%	0%	0%	-1.3%	-12%	27%
COc1ccc(NC(=O)c2nnn(Cc3ccc(SC)cc3)c2N)c(OC)c1	30%	-16%	2%	2%	-2%[2.3 µM]	.	-9%	-1.4%	-1%	4%

(more compounds)
smiles	Tau filament bind	ERK AVP block	15-hLO inh	Luciferase inh	Hsp90 Hop PPI	GFP derepression	Ub-GFP proteasome	HBB splice mod	DNA Pol III inh	CRE-bla Fsk
Cc1ccc(C2C3=C(CC(C)(C)CC3=O)NC3=C2C(=O)CC(C)(C)C3)o1	2%	-13%	3%	3%	-6%	-2%	.	0.7%[0.369 µM]	-3%	?
CCOc1ccc(-n2c(SCC(=O)Nc3ccc4c(c3)OCO4)nc3c(c2=O)SCC3)cc1	8%	.	24%	-2%	-6%	.	6%	0.0%	-3%	-6%
Cc1ccc(C2C3=C(CC(C)(C)CC3=O)Nc3[nH]c(=S)[nH]c(=O)c32)cc1 (stereo not drawn)	8%	22%	20µM*	1%	-12%	-3%	-4%	-3.4%	6%	?
COc1ccc(OC)c(-n2c(C)nc3cc(C(=O)O)ccc32)c1	-2%	18%	-4%	1%	1%	-1%	-8%	-1.8%	-1%	?
Cc1cccc(CNc2ncncc2-c2cccc(NS(C)(=O)=O)c2)c1	-6%	-1%	?	1%[2.29 µM]	-11%	5%[9.22 µM]	8%	1.4%	-2%	?
Cc1cc(NC(=O)CSc2nc3c(c(=O)n2-c2ccccc2)SC(C)C3)no1 (stereo not drawn)	-1%	.	5%	-13%	-2%	.	9%	-0.4%	0%	-10%
O=C(NCc1cccs1)C1CCCN(c2nc3ccccc3o2)C1 (stereo not drawn)	-3%	-7%	0%	0%	-1%	0%	4%	-2.8%[57.5 µM]	-8%	1%
COCCSc1ccccc1C(=O)NCCCn1ccnc1	11%	-10%	-30%	0%	-8%	5%	-2%	0.1%	4%	-2%
C=C(C)CN(CC)C(=O)CSc1nc2ncc(Cl)cc2[nH]1	-3%	?	-4%	-5%	-1%	-2%	4%	0.2%[57.5 µM]	?	-4%
COc1ccc(OC)c(-c2cc(C(=O)Nc3c(C)nn(Cc4ccccc4C)c3C)no2)c1	61%	25%	-12%	0%	-13%	0%	-11%	-0.9%	-2%	3.2µM*
c1ccc(CSc2ncccn2)cc1	-1%	3%	-27%	1%	2%	-3%	10%	1.5%	8%	?
CCN(CC)S(=O)(=O)c1ccc2[nH]cc(C(=O)NCCc3ccccc3)c(=O)c2c1	78%	18%	-4%	3%	0%	2%	2%	-0.6%	1%	20%
COc1cccc(C2C(C(=O)OCc3ccccc3)=C(C)Nc3ncnn32)c1OC (stereo not drawn)	138%	-7%	0%	1%	-6%[2.3 µM]	.	15%	-1.2%	-9%	2%
CCOc1ccc(NC(=O)CSc2nc3c(c(=O)n2C)SC(C)C3)cc1 (stereo not drawn)	-12%	.	-3%	0%	-3%	.	13%	-0.5%	-3%	15%
CCOc1ccccc1N1CCN(CC(O)COc2ccc3c(C)cc(=O)oc3c2)CC1 (stereo not drawn)	7%	1%	-7%	2%	-7%	-4%	-6%	3.3%	-4%	?
CC(CC(=O)c1cccs1)CC(=O)c1cccs1	.	.	-6%	.	.	.	.	.	.	.

Not all compounds are listed; count on the stated rates, not on these rows.
